Bioassay records: PubChem, several laboratories
Vif TR-FRET = inhibitors of Vif binding to APOBEC3G peptide, primary screen, biochemical, TR-FRET, GST-Vif 1-94, biotin-A3G peptide, dose response retest (AID 1117319). inhibition, %; hits with a dose series show IC50 in µM. 260,000 compounds, 0.57% hits. TR-FRET GST-Vif / biotin-A3G peptide binding; higher % means a stronger effect; test concentration not given here; strong numbers were not always called active;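 active = above the screen mean plus three standard deviations and confirmed in dose response; inconclusive = results disagree or hit not tested in dose response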;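 also: Vif residues 1-94 fused to GST binding biotinylated APOBEC3G peptide 110-148; 0% = full assay without inhibitor and 100% = GST in place of GST-Vif; retest series ran down from 100 µM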
Calb FLC = C. albicans growth modulation with fluconazole; C. albicans CaCi-2 (fluconazole-resistant clinical isolate) + fluconazole, Alamar Blue growth, 48 h; growth inhibition, % (concentration not given with the values); 300,000 compounds, 0.57% hits; AID 1979;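 active = most replicates above 75%; inconclusive = exactly half above 75%; inactive = most below 75%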;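 also: all wells also contain fluconazole at 8 µg/ml as a sub-toxic cotreatment; 0% = median of DMSO wells and 100% = median of geldanamycin control wells; wells of about 8 µL received 7.5 nL stock; the first replicate is given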
A1 inh = inhibitors of the anti-apoptotic protein A1, read as caspase activation. MEF A1-2A-BIM cells, Caspase-Glo 3/7 luminescence, 3 h; percent of clofoctol response, vehicle zero. caspase activation, % (concentration not given with the values). 330,000 compounds, 0.066% hits. AID 2462;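 active = over half of replicate activation scores above 10%, or exactly half above 10 with the replicate mean above 10; inconclusive = replicate mean below 10 yet half the replicates above 10; inactive = over half of replicates below 10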;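 also: wells of about 30 µL received 50 nL stock; many hits fall short of the cut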
rRNA inh HTS = inhibitors of bacterial rRNA selective over humanized ribosomes; GFP signal change (wild-type ribosome), % (no concentration beside the values); 350,000 compounds, 1.6% hits; E. coli WT GFP vs humanized-ribosome RFP mutants, fluorescence, 24 h; hits give low values; DMSO median 0, no signal -100;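 active = significant combined selectivity score with lowered wild-type GFP, culture density cut under 30%, mutant RFP and density less affected; inactive = any of these conditions unmet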; also: one replicate is shown; some compounds called inactive have numbers as strong as hits
RanGTP-Imp inh = disruptors of Ran-importin-beta complex formation – biochemical, FRET, CFP-Ran, YFP-importin-beta, homogeneous, primary screen; AID 2216; 300,000 compounds, 1.1% hits; inhibition, % (concentration not given with the values); cell-free CFP-Ran/YFP-importin-beta FRET ratio;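 active = most replicates above 15%; inconclusive = exactly half above 15%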;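 also: 0% = DMSO wells and 100% = Ran loaded with GDP instead of GTP; wells of about 40 µL received 100 nL stock; the first replicate is given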
T cruzi inh = blocks replication of Trypanosoma cruzi | inhibition, % (no concentration beside the values) | T. cruzi beta-gal in NIH3T3, luminescence, 90 h | 300,000 compounds, 1.4% hits;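 active = mean inhibition across valid replicates above about 55%, limit read from the data; inconclusive = mean below that limit but half or more replicates reach it; inactive = mean below it, under half of replicates reach it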;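 also: signal also drops with host cell toxicity which is not excluded here; 0% = plate median of DMSO wells and 100% = zero luminescence signal; higher percent means less beta-gal luminescence so fewer parasites; stock transfer was 50 nL into about 50 µL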
Beta cell apopt = blocks beta cell apoptosis; 300,000 compounds, 0.8% hits; protection from apoptosis, % (no concentration beside the values); AID 435005; INS-1E cytokine-induced death, ATP luminescence, 48 h; percent of positive-control rescue, neutral wells zero;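 active = all replicates at 75% or more, or half of them and the mean; inconclusive = half reach 75% but not the mean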;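 also: 0% = cytokine-treated negative control wells and 100% = positive control rescue; higher means more ATP so stronger rescue from cytokine killing; wells of about 40 µL received 100 nL stock; the first replicate is given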
MLL AF4-AF9 inh = blocks AF4 peptide binding to human AF9; P42568; AlphaScreen, biotin-AF4 peptide binding to FLAG-AF9; inhibition, % at 10 µM; 350,000 compounds, 0.47% hits; AID 651704;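 active = every replicate reaching a set inhibition limit, whatever the replicate mean, cut at about 25% in these data; inconclusive = mean inhibition reaches that limit but some replicates miss it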;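 also: 0% = plate neutral control median and 100% = total signal loss; the record names both 10 and 1 µM as test concentration; the first replicate is given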
Target sequence (P42568 whole entry, looked up): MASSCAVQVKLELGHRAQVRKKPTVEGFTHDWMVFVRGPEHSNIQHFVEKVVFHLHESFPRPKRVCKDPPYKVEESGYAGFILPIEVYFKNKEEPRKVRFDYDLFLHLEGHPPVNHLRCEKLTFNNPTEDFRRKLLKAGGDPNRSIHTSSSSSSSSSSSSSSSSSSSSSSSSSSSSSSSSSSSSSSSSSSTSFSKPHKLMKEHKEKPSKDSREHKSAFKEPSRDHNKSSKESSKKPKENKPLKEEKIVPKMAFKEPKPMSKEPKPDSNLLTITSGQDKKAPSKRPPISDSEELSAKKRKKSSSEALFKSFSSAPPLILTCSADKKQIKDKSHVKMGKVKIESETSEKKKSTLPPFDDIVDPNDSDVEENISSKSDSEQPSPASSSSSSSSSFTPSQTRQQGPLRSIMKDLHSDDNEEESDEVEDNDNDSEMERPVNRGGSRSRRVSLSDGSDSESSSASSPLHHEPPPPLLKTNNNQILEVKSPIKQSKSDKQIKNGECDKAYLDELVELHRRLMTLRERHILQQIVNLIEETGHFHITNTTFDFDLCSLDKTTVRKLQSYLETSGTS
rRNA inh HTS OD600 = second read-out of rRNA inh HTS, no call of its own (marks repeat the call); OD600 change, %; measured here: OD600 growth;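 optical density of the mix in the first replicate; 0 = DMSO median and -100 = no signal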
rRNA inh HTS RFP = recorded beside rRNA inh HTS, whose call it bears; RFP signal change, %; measured here: RFP humanized mutant strains;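 first replicate; 0 = DMSO median and -100 = no signal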
Numbers without * were called inactive; ? = inconclusive; · = not tested or not shown. The list is partial; the hit share may differ from the screen's.

Below each compound – Vif TR-FRET, Calb FLC, A1 inh, rRNA inh HTS, rRNA inh HTS OD600, rRNA inh HTS RFP, RanGTP-Imp inh, T cruzi inh, Beta cell apopt, MLL AF4-AF9 inh
1	CC(=O)N1CCOc2cc(S(=O)(=O)NC(C)c3ccccc3)c(Cl)cc21 (stereo unspecified)
  ·, 0, ·, -7, 3, 0.3, 2.6, 8, 4, -9.5
2	CC1CCN(C(=O)CSC2=NS(=O)(=O)c3cc(F)ccc3N2)CC1
  ·, 1, -1.1, 3, 0, -2.4, 0.3, 1, -1, -22
3	O=C(Cn1cnc2c(oc3ccccc32)c1=O)NCc1ccco1
  2%, -2, 0.0, ·, ·, ·, 1.8, -17, ·, ·
4	CCOC(=O)Cn1c(=NC(=O)c2cc(-c3cccs3)nc3ccccc23)sc2cc(S(N)(=O)=O)ccc21
  -60%, -8, 1.0, ·, ·, ·, 9.6, 14, -2, ·
5	O=C(COc1ccccc1Cl)Nc1cc(Cl)ccc1O
  -4%, -9, ·, 21, 6, 21, -2.6, 4, ·, -1.5
6	Cc1ccc2cc(C3CC(c4ccco4)=NN3C(=O)CCCC(=O)O)c(Cl)nc2c1 (stereo unspecified)
  ·, -2, -0.4, 10, 11, -2.8, 1.6, 5, 2, 0.8
7	CC(OC(=O)c1cccc(-n2cnnn2)c1)C(=O)N(C)c1ccccc1 (stereo unspecified)
  ·, -2, -0.1, 2, 4, 3.9, 1.1, 2, -1, -4.4
8	O=C(N/N=C/c1cccnc1)c1sc2ccccc2c1Cl
  -8%, -3, -0.7, -8, 5, 1.9, -1.8, 15, -7, -1.6
9	CCOC(=O)c1ccc(S(=O)(=O)Nc2ccccc2-c2nnn(CC)n2)cc1
  24%, 4, ·, -16, -15, 7.2, 1.4, -20, ·, -40
10	CC(=O)Nc1nnc(Cc2ccccc2)s1
  2%, 1, -0.4, ·, ·, ·, 0.5, -11, -4, ·
11	COc1ccc(OC)c(NC(=S)NC(=O)c2ccc(Br)o2)c1
  ·, 8, -0.3, 8, 18, 2.2, 2.8, 0, -1, -13
12	Cc1nnc(SCCn2c(N3CCN(C)CC3)nc3c2c(=O)n(C)c(=O)n3C)s1
  -2%, ?, -0.4, ·, ·, ·, -1.9, 3, 3, ·
13	Cc1cc(NC(=O)/C(C#N)=C/c2ccc(-c3cccc(C(F)(F)F)c3)o2)n(-c2ccccc2)n1
  ·, 5, -0.4, ·, ·, ·, -1.1, -10, -6, ·
14	CC(C)NC(=O)Cn1cc(S(=O)(=O)N2CCCC2)c(S(=O)(=O)N2CCCC2)c1
  ·, -3, -1.0, 31, 17, 1.9, ?, -17, -4, -1.3
15	CC(C)n1nnnc1SCC(=O)N1CCN(C(=O)c2ccco2)CC1
  -1%, 24, -0.7, ·, ·, ·, 0.4, -8, ·, ·
16	N=C1C(c2nc3ccccc3s2)=C(O)CN1CCCO
  -1%, -6, 0.9, -5, -5, -2.6, 4.8, -4, 1, ·
17	CCCCN1C(=O)N(c2nnc(C(C)(C)C)s2)C(O)C1c1ccc(C)cc1 (stereo unspecified)
  ·, 15, -1.9, -24, -34, -2.5, 2.2, 18, 3, -0.1
18	CN(C(=O)c1cnccn1)c1c(N)n(Cc2ccccc2)c(=O)[nH]c1=O
  2%, -2, 0.1, 11, 12, 1.2, -2.7, -5, 2, 2.0
19	CCCS(=O)(=O)N1CCC(C(=O)NCc2ccco2)CC1
  6%, -5, 0.6, ·, ·, ·, 4.1, 2, -2, ·
20	Cc1cc(NC(=O)c2ccc(Cl)cc2)c(C)cc1O
  -1%, 4, -1.9, -4, 3, -3.7, 1.9, -13, ·, -1.4

Other structures follow.
Below each compound – Vif TR-FRET, Calb FLC, A1 inh, rRNA inh HTS, rRNA inh HTS OD600, rRNA inh HTS RFP, RanGTP-Imp inh, T cruzi inh, Beta cell apopt, MLL AF4-AF9 inh
21	CCCCCNC(=O)CCn1c(=O)oc2ccccc21
  10%, -3, 0.7, ·, ·, ·, -0.2, -18, -6, ·
22	COc1ccc(S(=O)(=O)NNC(=S)NCCc2ccccc2)c(OC)c1
  ·, 1, -1.9, -25*, -14*, -0.8*, 3.7, -9, -8, -2.1
23	COc1ccc(OCC(O)CNC(=O)c2ccc(C)cc2)cc1 (stereo unspecified)
  -4%, 4, 0.3, 8, 10, 3.1, 2.0, -19, -2, 1.8
24	COc1cc2c(cc1OC)C1C/C(=N\O)C(CC(C)C)CN1CC2 (stereo unspecified)
  26%, ·, 0.0, -8, -8, 1.3, 2.3, -8, 1, ·
25	CCOc1ccccc1Oc1nc(-c2ccccc2O)nc2ccccc12
  -5%, 3, 0.9, 12, 12, 2.0, -1.7, -13, 4, -13
26	COc1ccc(C(=O)NC(NC(=O)c2ccc(OC)c(OC)c2)c2ccccc2F)cc1OC
  ·, -14, 0.1, ·, ·, ·, -4.7, 3, 4, ·
27	O=C(Nc1cccc(C(F)(F)F)c1)C(SCCO)c1ccccc1 (stereo unspecified)
  ·, 12, 1.0, ·, ·, ·, 0.6, -14, -6, ·
28	COC(=O)c1cc(C(=O)Nc2nnc(CC(C)C)s2)cc([N+](=O)[O-])c1
  ·, -1, 0.9, ·, ·, ·, 1.8, 4, -2, ·
29	O=C(O)c1ccc(NC(=O)C2C3CCC(C3)C2C(=O)O)cc1 (stereo unspecified)
  1%, -9, 0.1, ·, ·, ·, 3.1, -20, -2, ·
30	C[C@]1(C(=O)NCCN2CCOCC2)C=C[C@@H](Cc2ccccc2)N1C(=O)c1ccccc1
  -3%, -9, -0.2, 5, 17, 1.3, 0.6, -6, -1, -0.7
31	Cc1cc(S(=O)(=O)NCC(C)C)ccc1OCC(=O)NCc1ccco1
  5%, 21, 1.0, 4, 4, -2.0, 3.6, 5, -12, -0.3
32	c1ccc(Cc2nc(-c3ccccn3)no2)cc1
  32%, -8, -1.3, ·, ·, ·, 4.7, 4, -1, ·
33	CCOc1ccc(-c2nnn(CC(=O)NCc3ccc4c(c3)OCO4)n2)cc1
  3%, ·, 0.6, ·, ·, ·, 0.5, 3, -8, ·
34	Cc1cc(C)n(Cc2ccc(C(=O)NN)o2)n1
  ·, 10, -0.3, 10, -2, 3.7, 1.7, -13, -13, 1.5
35	COC(=O)CN1C(=O)C(O)(CC(=O)c2ccc(Cl)cc2)c2ccccc21 (stereo unspecified)
  9%, ·, 1.2, -2, 5, -3.6, ·, ·, ·, 8.7
36	CNc1nc(OCC#N)nc(N2CCCCC2)n1
  -10%, 5, 0.2, 12, 7, 2.6, 1.0, -23, -10, -2.8
37	CCC1SC2=NCCN2C1(O)c1ccc(Cl)cc1 (stereo unspecified)
  3%, -2, 1.0, ·, ·, ·, 0.2, -10, 4, ·
38	CCCC(NS(=O)(=O)c1ccc(C)cc1)C(=O)O (stereo unspecified)
  -9%, -12, 0.7, ·, ·, ·, -3.7, -2, -2, ·
39	COc1cc(C(=O)N2CCN(C(=O)COc3ccc4ccccc4c3)CC2)cc(OC)c1OC
  10%, 4, 0.1, ·, ·, ·, 6.0, 27, 7, ·
40	CN(CC(=O)Nc1ccc(Cl)cc1)C(=O)c1ccc(-n2cncn2)c([N+](=O)[O-])c1
  -8%, -7, -0.2, 3, 3, -3.3, 1.1, -11, 4, -1.0

(more compounds)
Below each compound – Vif TR-FRET, Calb FLC, A1 inh, rRNA inh HTS, rRNA inh HTS OD600, rRNA inh HTS RFP, RanGTP-Imp inh, T cruzi inh, Beta cell apopt, MLL AF4-AF9 inh
41	COc1cc(/C=C/C(=O)O)cc(S(=O)(=O)Nc2cccc(SC)c2)c1OC
  13%, 0, -0.8, 6, -2, -1.7, 0.0, -38, 2, -6.9
42	O=C(O)c1ccc(OCc2cn3ccccc3n2)cc1
  ·, -10, -1.8, -8, 0, 0.9, 1.7, -21, -6, ·
43	COc1ccc(C)cc1C(=O)CCC(=O)NCCc1ccc(S(N)(=O)=O)cc1
  -2%, 1, 1.0, 0, 11, -1.2, 5.7, 3, -2, -5.0
44	CC(OC(=O)c1cc(=O)c2ccccc2o1)C(=O)c1ccccc1 (stereo unspecified)
  -5%, ·, 0.8, 3, 11, -2.1, ·, ·, 2, -1.1
45	Cn1c(=O)c(C(=O)CCl)c(N)n(Cc2ccccc2)c1=O
  ?, 4, 0.7, 17, 16, 0.6, 0.5, -18, 1, 1.4
46	Cn1c(SCC(=O)Nc2cccc(C(=O)O)c2)nnc1-c1cc2cc(Br)ccc2o1
  10%, -14, 0.5, -13, -12, -4.6, -0.7, -18, ·, -0.2
47	COc1ccc(CNC(=O)c2ccc(SC)cc2OC)cc1
  7%, -7, 0.2, ·, ·, ·, -0.5, 0, 1, ·
48	COc1ccc(N2CCN(C(=O)COc3ccc(Cl)cc3Cl)CC2)cc1
  2%, -5, 0.4, ·, ·, ·, 3.1, -4, ·, ·
49	O=P(c1ccccc1)(c1ccccc1)c1nc(-c2ccccc2)oc1NCc1ccccc1
  23%, 11, -1.7, 11, 10, 7.8, 1.6, 29, -4, -5.6
50	Cc1cccc(CCNS(=O)(=O)c2ccc3c(c2)n(C)c(=O)c(=O)n3C)c1
  -4%, -4, 0.2, 1, 3, -3.1, ?, -4, ·, 1.9
51	O=C(O)CCS(=O)(=O)c1ccccc1Cl
  -1%, -4, 1.0, 19, 2, 0.2, ?, -6, -5, -0.5
52	CCN1CCCC1CN(Cc1cc2ccc(C)cc2[nH]c1=O)C(=S)Nc1ccc(OC)cc1 (stereo unspecified)
  17%, 22, 0.6, ·, ·, ·, 0.4, 15, -10, ·
53	Cc1cc(C)c(NC(=O)COC(=O)C2CCC2)c(Cl)c1
  ·, 4, 1.4, 0, -7, 1.3, -0.7, -8, -2, -14
54	Cc1ccc(CNC(=O)CC(C)S(=O)(=O)c2cc3c(cc2C)NC(=O)CO3)cc1 (stereo unspecified)
  -6%, 4, ·, -3, 2, -3.1, 1.3, 1, ·, -2.2

Shown tab-delimited: part of the list above
#	Molecule	Vif TR-FRET	Calb FLC	A1 inh	rRNA inh HTS	rRNA inh HTS OD600	rRNA inh HTS RFP	RanGTP-Imp inh	T cruzi inh	Beta cell apopt	MLL AF4-AF9 inh
26	COc1ccc(C(=O)NC(NC(=O)c2ccc(OC)c(OC)c2)c2ccccc2F)cc1OC	·	-14	0.1	·	·	·	-4.7	3	4	·
22	COc1ccc(S(=O)(=O)NNC(=S)NCCc2ccccc2)c(OC)c1	·	1	-1.9	-25*	-14*	-0.8*	3.7	-9	-8	-2.1
